Bioassay records from PubChem.
NPYLR7 ag – mosquito NPYLR7 agonism; HEK293T NPYLR7/Galpha15, GCaMP6s calcium fluorescence; activation, % at 10 µM; 270,000 tested, 0.15% active; AID 1259423; in the data active means activation above about 40%;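 further: 0% = vehicle and 100% = reference agonist at the receptor; some compounds past the cut are filed as inactive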
NPYLR7 ag max-min – second read-out of NPYLR7 ag, no call of its own (marks repeat the call); activation, %; measured here: Max-Min RFU normalised activation; some inactives read as strong as hits;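 span of the calcium signal over five minutes; 0% = vehicle and 100% = native peptide agonist; compound fluorescence can raise it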
* marks the source's active call; other numbers are inactive results.

SMILES	NPYLR7 ag	NPYLR7 ag max-min
O=C(c1cc(Cn2ccc3ccccc32)[nH]n1)N1[C@@H]2CC[C@H]1CC(O)C2 (stereo partly drawn)	-1	2
O=C(NCCn1nc(-c2ccc(Cl)cc2)ccc1=O)c1ccccc1	-1	-2
C[C@H]1C(=O)N(CC(=O)Nc2ccc3ncsc3c2)C[C@@H]2N(CC3CC3)CCC(=O)N21	-2	-3
CC(Oc1ccccc1)c1nn2c(-c3cccnc3)nnc2s1 (stereo not drawn)	0	1
O=S(=O)(c1ccc(Cl)cc1)n1nnc2ccccc21	10	3
CC(C)c1ccc(Cc2nnc(N3CCCCC3)[nH]c2=O)cc1	12	9
O=C1CCC(c2ccc(I)cc2)=NN1	17	15
COc1ccccc1C(C)NC(=O)C1(c2ccccc2)CC1 (stereo not drawn)	6	4
Cc1cccn2c(=O)c3cc(C#N)c(=N)n(CC4CCCO4)c3nc12 (stereo not drawn)	5	9
O=[N+]([O-])c1ccc(-c2ccc(-c3csc(Nc4ccc(F)cc4)n3)o2)cc1	1	0
CC(C)(C)c1ccccc1S(=O)(=O)Nc1n[nH]c2ccccc12	2	2
COc1ccc(CNC(=O)c2cccnc2N2CCN(C(=O)NCc3cccc(OC)c3)CC2)cc1	13	14
CC=CCn1c(N)nc2c1c(=O)[nH]c(=O)n2C	0	-1
CCOC(=O)C1(CCc2ccccc2)CCN(C(=O)c2ccc(C#CC(C)(C)O)cc2)CC1	5	-4
Cc1nc(-c2ccccc2)sc1C(=O)Nc1cccc(-c2ccc(=O)n(C)n2)c1	0	-2

Laid out differently: entries from further up.
Order of results – NPYLR7 ag	NPYLR7 ag max-min
CC(C)(C)c1ccccc1S(=O)(=O)Nc1n[nH]c2ccccc12
  2	2
O=C1CCC(c2ccc(I)cc2)=NN1
  17	15
CC=CCn1c(N)nc2c1c(=O)[nH]c(=O)n2C
  0	-1
O=S(=O)(c1ccc(Cl)cc1)n1nnc2ccccc21
  10	3
CC(C)c1ccc(Cc2nnc(N3CCCCC3)[nH]c2=O)cc1
  12	9
CCOC(=O)C1(CCc2ccccc2)CCN(C(=O)c2ccc(C#CC(C)(C)O)cc2)CC1
  5	-4
Cc1cccn2c(=O)c3cc(C#N)c(=N)n(CC4CCCO4)c3nc12 (stereo not drawn)
  5	9

Next structures follow.
SMILES	NPYLR7 ag	NPYLR7 ag max-min
CCN(CC)CCCNC(=O)c1cc(N2CCSCC2)nc2ccccc12	2	0
COc1ccccc1Oc1ncccc1CNCc1cc2ccccc2o1	15	5
Clc1ccc(Oc2cc(N3CCN(Cc4ccncc4)CC3)ncn2)cc1	0	12
O=C(/C=C/c1ccc(OCc2ccccn2)cc1)N1CCC12CCC2	5	3
CCN(CC)CCSc1nc(-c2ccccc2OC)nc2c1c(=O)n(C)c(=O)n2C	-5	-9
CCc1ccc(C(=O)N2CCC3(CC2)OCC(C(=O)NCC2CCCO2)N3C(=O)c2ccc(OC)cc2)cc1 (stereo not drawn)	4	19
O=C(OCc1cc(-c2ccc(F)cc2F)on1)c1cccs1	0	-3
CCOC(=O)Cn1c(=NC(=O)c2ccc3ncsc3c2)sc2cc(S(C)(=O)=O)ccc21	0	-3
CC(=O)Nc1ccc(S(=O)(=O)Oc2ccc(Cl)cc2CN(C(=O)c2ccccc2Cl)C2CC2)cc1	4	14
COc1cccc(CN2CCCC(O)(CN3CCc4nc(N)sc4C3)C2=O)c1 (stereo not drawn)	5	3
CC(c1nc(C(C)(C)C)no1)N1CCN(CC(=O)N(C)C)CC1 (stereo not drawn)	5	3
CC(=O)N1CCCc2cc(S(=O)(=O)NC(C)c3ccc(Cl)cc3Cl)ccc21 (stereo not drawn)	0	-5
O=S1(=O)NC(=NCCc2cccs2)c2ccccc21	0	-2
O=C1/C(=C/c2cn[nH]c2-c2ccccc2)SC(=Nc2ccccc2)N1c1ccccc1	-8	-15
O=S(=O)(NCc1ccccc1)c1ccc2c(c1)OCCO2	6	2
CNC(=O)c1ccc(NC(=O)c2ccc(C3SCCCS3)cc2)c(C)c1	-4	-6
CCOc1ccc(OCCCOc2ccccc2Cl)cc1	1	9
COc1ccc(-c2ncc[nH]2)c(OC)c1C	-3	-4
CC1(C(=O)N2CCC(c3n[nH]c(=O)n3Cc3ccccc3)CC2)CCCO1 (stereo not drawn)	0	1
O=c1[nH]c(=O)n(C2CCCCC2)c(O)c1C=C1C=Nc2ccccc21	-2	-8
CN(CC1COCCO1)c1nc2nonc2nc1NCc1cccs1 (stereo not drawn)	12	6
O=C(CCc1ccccc1)Nc1cc(C(F)(F)F)ccc1N1CCOCC1	0	-1
CSc1ccc(C(NC(=O)c2ccc(C(F)(F)F)c(F)c2)c2cccc(Cl)c2Cl)cc1 (stereo not drawn)	-21	-28
COc1ccccc1C(=O)N[C@@H]1c2ccccc2C2(CCN(C(=O)c3cc(C)nn3C)CC2)[C@H]1OC	2	-2
CCCCN(C(=O)COc1ccccc1)c1c(N)n(CCC)c(=O)[nH]c1=O	-3	-4
O=C(c1ccc2n[nH]nc2c1)N1CCCC2(C1)C(=O)Nc1ccccc12 (stereo not drawn)	5	5
Cc1cc(-c2csc(NCC3CCCO3)n2)c(C)n1C1CC1 (stereo not drawn)	13	11
CNC(=O)NC(=O)CSc1nnc(-c2ccc(OC)cc2)n1C(C)C	1	3
CC1(C(=O)NS(=O)(=O)c2ccc(Br)cc2)CCN1C(=O)CCC1CCCC1 (stereo not drawn)	20	19
CC(=O)Nc1sc(C)c(C)c1C(=O)OCC(=O)NC(N)=O	1	-3

Of the compounds above, these have an aryl methoxy group.
SMILES	NPYLR7 ag	NPYLR7 ag max-min
COc1ccccc1C(C)NC(=O)C1(c2ccccc2)CC1 (stereo not drawn)	6	4
COc1ccc(CNC(=O)c2cccnc2N2CCN(C(=O)NCc3cccc(OC)c3)CC2)cc1	13	14
COc1ccccc1Oc1ncccc1CNCc1cc2ccccc2o1	15	5
CCN(CC)CCSc1nc(-c2ccccc2OC)nc2c1c(=O)n(C)c(=O)n2C	-5	-9
CCc1ccc(C(=O)N2CCC3(CC2)OCC(C(=O)NCC2CCCO2)N3C(=O)c2ccc(OC)cc2)cc1 (stereo not drawn)	4	19
COc1cccc(CN2CCCC(O)(CN3CCc4nc(N)sc4C3)C2=O)c1 (stereo not drawn)	5	3
COc1ccc(-c2ncc[nH]2)c(OC)c1C	-3	-4
COc1ccccc1C(=O)N[C@@H]1c2ccccc2C2(CCN(C(=O)c3cc(C)nn3C)CC2)[C@H]1OC	2	-2
CNC(=O)NC(=O)CSc1nnc(-c2ccc(OC)cc2)n1C(C)C	1	3

Remaining list, next part:
SMILES	NPYLR7 ag	NPYLR7 ag max-min
CC(C)NS(=O)(=O)CCCOc1ccc2c(c1)OCO2	10	13
CC(C)CN1CC(C(=O)N2CCC(OCc3cccnc3)CC2)CC1=O (stereo not drawn)	16	13
CSc1ccc(C=Nc2c[nH]c(=O)[nH]c2=O)cc1	-3	-3
Cc1ccc(CN(CCC(C)C)CC(O)c2ccccc2)s1 (stereo not drawn)	30	32
COc1cccc(C=CC(=O)c2ccc(OC)c(OC)c2)c1	-1	-2
CCC(C(=O)NCc1ncc[nH]1)n1cc(C(C)=O)c2ccccc21 (stereo not drawn)	2	0
CC1CCCCN1C(=O)[C@@H]1CSCN1C(=O)c1ccccc1 (stereo partly drawn)	5	-6
Cc1c(C(=O)N2CCC2)cnc2c(-c3cccs3)cnn12	19	10
COc1ccc(NC(=O)c2ccc(Br)o2)c(OC)c1	-3	-7
CC(=O)C(Sc1ncnc2sc3c(c12)CCCC3)=C(C)O	3	5
CCCCn1c(C)c(C)n2c3c(=O)n(C)c(=O)n(C)c3nc12	5	24
CCCC(=O)N1CCN(C(=O)c2cn(C)cc3c(=O)n(-c4ccccc4)nc2-3)CC1	0	-1
O=c1[nH]c(CN2CCN(c3cccc(Cl)c3)CC2)nc2ccccc12	16	11
Cc1cccc(NC(=O)N(C)CCS(C)(=O)=O)c1Cl	-21	-24
Cc1ccc2[nH]c(O)c(N=NC(=O)COc3c(Cl)cc(Cl)cc3Cl)c2c1	3	-2
CN1CCN(C(=O)c2cc3c(=O)n4ccccc4nc3s2)CC1	8	2
CC(C)=CCC/C(C)=C/C(=O)NC(c1ccc(F)cc1)c1ccc(SCc2ccccc2)cc1 (stereo not drawn)	-18	-27
Cc1c(Cl)c([N+](=O)[O-])nn1CC(=O)N1CCN(Cc2ccccc2)CC1	7	8
Cc1sc(-n2cccc2CNCc2cccs2)c(C(=O)O)c1C	3	3
CC(C)OC(=O)C1C(c2cccc(F)c2)c2c([nH][nH]c2=O)CC1(C)O (stereo not drawn)	-2	-4
COc1cc(NC(=O)NC[C@H]2O[C@@H](CO)[C@@H](O)[C@H]2N2CCOCC2)cc(OC)c1	-9	-13
CC(C)C(=O)N1CCC(NCC(c2ccccc2)N2CCCCCC2)CC1 (stereo not drawn)	1	-5
COc1ccc(Cl)cc1-n1c(C)c(C)n2c3c(=O)n(CCN4CCOCC4)c(=O)n(C)c3nc12	9	3
CC1CN(C(=O)C(N)Cc2ccccc2)CCN1C(=O)C1CC1 (stereo not drawn)	28	19
CC(C)COc1nc(-c2cccc(C(F)(F)F)c2)n(-c2cccc(NC(=O)c3ccco3)c2)n1	1	8
Cc1ccn2c(=O)c(NC(=O)c3ccc4ccccc4c3)c(C)nc2c1	5	1
O=C1N(Cc2ccc(F)c(F)c2)CCCC1(O)CNCCc1cnccn1 (stereo not drawn)	6	4
Cc1cc(=O)c(C(=O)NS(=O)(=O)c2ccc(Cl)cc2)c[nH]1	4	1
Cc1cc(C)cc(-n2nc(C(=O)O)c(=O)n(Cc3cccc(Cl)c3)c2=O)c1	17	21
c1coc(-c2noc(CN3CCCCC3CCN3CCOCC3)n2)c1 (stereo not drawn)	1	2
CC(C)(C)NC(=O)COc1coc(CN2CCc3ccccc3C2)cc1=O	-1	52
Cc1cc(N2CC34C=CC(O3)C(C(=O)Nc3ccc5ncsc5c3)C4C2=O)no1 (stereo not drawn)	-1	15
COc1ccc(-c2cn([C@H](CO)CC(C)C)nn2)cc1OC	9	7
COC(=O)c1ccc(Cn2nc(-c3ccc(F)cc3)c3sc(N4CCCC4)nc3c2=O)cc1	-3	-4
CCOCC(O)CNC(=O)c1coc(CN2CCN(c3ccccc3F)CC2)n1 (stereo not drawn)	4	1
CCCC(=O)Nc1c(-c2ccccc2OC)nc2ccc(C)cn12	-5	0
CSc1ncc(CN[C@H](C)c2ccc(C)cc2)c(N2CCCC2)n1	13	12
CC(C)Cn1c2c(c(=O)n(C)c1=O)C(c1cccs1)C1C(=O)CC(C)(C)CC1=N2 (stereo not drawn)	1	18
CC1(C(=O)NS(=O)(=O)c2cccc(F)c2)CCN1C(=O)Cc1cccs1 (stereo not drawn)	0	-5
CNc1ccc(S(=O)(=O)NC)cc1NC(=O)c1csc(C)n1	2	5
O=C(CSCc1ccccc1Cl)N1CCC2(CCCO2)CC1	-1	0
CC12CC3CC(C)(C1)CC(C(=O)N1CCc4sccc4C1)(C3)C2	-8	-17
Cc1ccc2nc(COC(=O)C(C)N3C(=O)C4CCCCC4C3=O)cc(=O)n2c1 (stereo not drawn)	0	8
Cc1csc(Sc2nc(CN3CCOCC3)nc3sc(C)c(C)c23)n1	-1	12
COc1ccc(CN2CCN(Cc3nc4cc(OC)c(OC)cc4c(=O)[nH]3)CC2)cc1F	1	-2
Cc1cccc(C=C(C#N)C(=O)C(C)(C)C)c1	0	5
Cc1ccsc1CNCCNc1ccc(C(F)(F)F)cn1	6	3
COc1ccc(N(CC(=O)N2CCN(c3ccccc3OC)CC2)S(=O)(=O)c2ccccc2[N+](=O)[O-])c(OC)c1	-7	-5
O=C(C1CCCC1)N(CCN1CCCC1)Cc1csc(COc2ccccc2)n1	24	16
Cc1cccnc1NC(=O)C(C)n1nc(-c2cccs2)ccc1=O (stereo not drawn)	5	0
O=C(c1cccc(-n2ccc3ccccc32)c1)N1CCOCC1	-3	-2
O=C(NCC1(c2ccccc2)CCCC1)C1CCC(=O)N(Cc2ccccn2)C1 (stereo not drawn)	16	7
C=CCNC(=O)c1ccccc1N1CCC(NC(=O)NC(C)(C)C)CC1	-1	9
Cc1csc2c(N3CCC4(CCC(=O)N(C)CC4)CC3)ncnc12	17	7
NCC1Cc2cc(-c3nccc(N4CCC(O)CC4)n3)cc(Cl)c2O1 (stereo not drawn)	1	-3
Cc1ccc(-n2ncc3c(=O)n(NC(=O)c4ccc(Br)cc4)cnc32)cc1C	0	-2
COc1cn(CC(=O)NC(C)(C)C)c(CN2CCC(C)CC2)cc1=O	0	-3
CCc1cn[nH]c1C1CCN(Cc2cnc(-c3ccccc3OC)nc2)CC1	-2	-3
CCOCc1[nH]c(=S)[nH]c(=O)c1Cc1ccc(OCC(C)C)cc1	-2	-1
Cc1nc(-c2ccccc2Cl)sc1C(=O)NCCc1cnc[nH]1	-3	9

Continuation:
SMILES	NPYLR7 ag	NPYLR7 ag max-min
CCc1nc2c(OCc3ccc(F)c(F)c3)cccn2c1N(C)C(=O)CC(C)C	1	6
COCC(=O)N1CCCN(c2nc(CCC(C)C)nc3c2cnn3-c2cccc(Cl)c2)CC1	8	10
COCCn1c(C)cc(O)c(C(c2ccc(OC)cc2)N2CCN(c3ccccc3F)CC2)c1=O (stereo not drawn)	11	1
CCN(CC)C(=O)C1CCCN(C(=O)CC2(c3ccccc3Cl)CC(=O)N(CCOC)C2=O)C1 (stereo not drawn)	22	4
COC(=O)C(C)(Cc1ccccc1)NC(=O)c1ccc(NC(C)C)nc1 (stereo not drawn)	-13	-27
CCCn1c(=O)n(CC(O)c2ccc(F)cc2)c(=O)c2c1nc(C)n2CCOC (stereo not drawn)	3	0
Cc1nc(C2CCCNC2)cc(N(C)Cc2noc3c2CCCC3)n1 (stereo not drawn)	0	-2
CC1CCCN(c2cc(C(=O)NCc3ccc(Cl)cc3)c3ccccc3n2)C1 (stereo not drawn)	9	0
Cc1cccc(C)c1Oc1ncccc1CNC(=O)c1c(C)noc1C	1	-2
Cc1nnc(NC(=O)Cc2csc(-c3ccccc3)n2)s1	-1	-2
O=C(c1c[nH]c(=O)cn1)N1CCc2nnc(CCc3ccccc3)n2CC1	18	4

An excerpt; rates above refer to the full screens.
